# BJeLR viability: kills HRASV12-expressing BJeLR cells | 300,000 tested, 0.17% active | BJeLR (HRASV12) viability, CellTiter-Glo ATP luminescence, 48 h; reference of the scale not given here | inhibition, % (test concentration not listed);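 active means replicate mean above 50%; inconclusive means above 50% but judged a plate artefact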;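 further: 50 nL library stock added to about 25 µL; numbers are from one replicate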
# PrP 5UTR inh: inhibition of PrP 5' UTR reporter expression; inhibition, % (test concentration not listed); cell-based PrP 5' UTR mRNA reporter, plate reader; 340,000 tested, 0.35% active;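 active means every replicate at 50% or more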;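 further: 0 = median of the neutral control wells; tested in H4 reporter cells; numbers are from one replicate; inactives centre near -14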
# Mtb hypoxia rep: Mtb hypoxia fluorescent reporter inhibition. M. tuberculosis hypoxia-regulated fluorescent reporter, fluorescence. fluorescence inhibition, % (concentration not given with the values). 300,000 tested, 0.1% active. AID 1159583;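 active means 35 to 45% if threefold the growth effect, above 45% if 1.5-fold the growth effect; inactive means the rest, general growth blockers included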;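 further: wells of about 50 µL received 100 nL stock; 0% = vehicle wells and 100% = reference inhibitor wells; whole bacteria with a GFP reporter of the hypoxia response; strong numbers were not always called active; many hits fall short of the cut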
# ugtP null kill: compounds lethal to S. aureus RN4220 ugtP deletion mutant; OD600 growth, 16 h; some inactives read as strong as hits; growth inhibition, % (test concentration not listed); 330,000 tested, 0.54% active; AID 1259309;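 active means z-score under -3 and OD600 up to 0.15 on both plates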;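 further: plate controls were untreated wells for no effect and antibiotic for full effect; wells of about 80 µL received 100 nL stock; the first replicate is given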
# RN4220 kill: S. aureus RN4220 growth inhibition. inhibition, % (no concentration beside the values). 330,000 tested, 0.33% active. OD600, 16 h. AID 1259311;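 active means z-score of -3 or lower and OD600 up to 0.18 on both plates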;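 further: plate controls were untreated cells for no effect and reference antibiotic for full effect; stock transfer was 100 nL into about 80 µL; one replicate is shown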
# Autofluor counter: counter-screen for toxin protease inhibitors: compound fluorescence. compound autofluorescence counterscreen, microsphere flow cytometry; stronger effect = higher value. fluorescence intensity (concentration not given with the values). 360,000 tested, 3.1% active. AID 624483;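 active means at least 3 SD above the mean of all compounds, about 16000 in these data; inconclusive means too few beads counted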;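 further: 100 nL of 1 mM stock went into each well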
# Mtb hypoxia rep growth: also measured in Mtb hypoxia rep; calls as there; growth inhibition, %; measured here: M. tuberculosis growth (absorbance);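 0% = vehicle and 100% = reference antibiotic; read after six days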
# Starred values were filed as active, the others as inactive; ? = inconclusive; / = no result given; & = joins results of further samples. The order is random. About 4.1% of those tested had a hit in this group.
# The line under a structure holds: BJeLR viability, PrP 5UTR inh, Mtb hypoxia rep, Mtb hypoxia rep growth, ugtP null kill, RN4220 kill, Autofluor counter
CCOC(=O)n1c(=O)oc2cc(S(=O)(=O)N3CCCCC3)ccc21
    3, -19, 4, 6, 2, 0.8, 23136*
Cc1cc(CNC(=O)c2cc(COc3c(F)cccc3F)on2)nn1C
    -22, 4, 6, 5, 13, 0.2, 2443
Cc1ccccc1C(=O)Nc1ccccc1N1CCCCC1
    3, -10, 10, 10, 26, 5.4, 2318
COC(C)(C)[C@H](O)COc1c2ccoc2cc2oc(=O)ccc12
    5, -5, /, /, /, /, 3861
Cc1ccc(N)cc1NC(=O)CN1CCOCC1
    -3, 0, 12, 2, 6, 6.9, 3451
CC(=O)Nc1ccc(C(=O)NCCN2CCOCC2)cc1
    2, -20, -2, 0, 6, 6.2, 3495
C=CCN1C(=O)C(Cc2ccc(SC(F)F)cc2)SC1=Nc1ccc(C(=O)O)cc1 (stereo not given)
    4, -3, 1, 20, 10, 15, 4497
O=C(CSc1ncn[nH]1)NCCOc1ccccc1
    7, -35, -1, 5, -2, 0.1, 3302
Cc1ccc(C(C)(O)CS(=O)(=O)Cc2ccccc2Cl)cc1 (stereo not given)
    7, -12, -6, 4, 0, 1.2, 3620
CCc1cc(=O)oc2c3c(cc(OCC(=O)NCCCn4ccnc4)c12)OC(C)(C)CC3
    7, -9, /, /, 3, 3.9, 4966
CC(CC(=O)NCCCN1CCOCC1)=NNC(=O)COc1ccc(Cl)cc1
    /, /, 16, 11, 10, 2.7, /
COc1ccccc1C(=O)N(NC(=O)Oc1ccccc1)C(C)(C)C
    0, -26, -2, 0, 8, 6.7, 2009
COc1ccc(NC(=O)C(NC(=O)CC2NC(=O)NC2=O)c2ccccc2)cc1 (stereo not given)
    -1, -14, -1, 5, 4, -3.0, 2089
CN(C)CCN(C(=O)c1ccc(S(=O)(=O)N(C)c2ccccc2)cc1)c1nc2cc3c(cc2s1)OCCO3
    2, 12, -8, 9, 9, 1.5, ?
COc1ccc(OCCOC(=O)c2ccc(-n3cnnn3)cc2)cc1
    1, -12, 12, 14, 8, 4.9, 3216
O=C1c2ccccc2C(=O)N1OCCOCCOCCBr
    -8, -23, 5, 0, 8, 2.6, 6466
Cc1ccccc1Oc1cc(-n2ncc(Cl)c(Cl)c2=O)ncn1
    /, -10, 13, 11, 92*, 58, 10338
CC(C)CN1C(=O)CC(Sc2ccccc2C(=O)O)C1=O (stereo not given)
    -12, -5, 4, 10, -2, -0.9, 10956
COc1ccc(/C=N/NC(=O)c2ccc(Cn3cc([N+](=O)[O-])cn3)o2)c(OC)c1C
    -3, -16, /, /, /, /, 2896
O=C(COc1ccc(S(=O)(=O)N2CCOCC2)cc1)NCCN1CCOCC1
    -8, -36, 15, 2, 7, 2.9, 3876
O=C(c1ccc(OC2CCN(Cc3ccc(F)cc3)CC2)cc1)N1CCCC1
    3, -3, 5, -3, -3, -0.9, 5648
Cc1nn(C)c(C)c1CN(C(=O)CCc1nnc(Cc2c[nH]c3ccccc23)o1)C(C)C
    -2, -23, 4, 2, 6, 1.1, 3375
CCOc1ccc(S(=O)(=O)N2CCOCC2)cc1NC(=O)CN1C(=O)NC(C)(c2ccccc2)C1=O (stereo not given)
    -2, 0, -13, -10, -5, -4.0, /
O=C(Oc1ccccc1)c1ccccc1
    /, 1, 11, 4, 7, 1.3, 3028
Cc1cccc(NC(=S)N/N=C(\c2ccccc2)C(C)C)c1
    -6, -24, /, /, /, /, 3572
Cc1ccc(/C=N/NC(=O)c2ccc(NC(=O)c3ccc(Cl)cc3)cc2)o1
    -3, -14, /, /, /, /, 3038
C=CCNC(=O)COc1coc(CN2CCN(Cc3ccccc3)CC2)cc1=O
    5, -24, 9, 3, 1, 4.6, 5774
O=C(O)c1ccc(CSc2nc3ccccc3o2)cc1
    -4, -32, /, /, -5, -17, 2844
COC(=O)c1cc(C(=O)c2cc(F)ccc2O)cn2c(=O)c3c(C)c(C)sc3nc12
    10, -4, 2, -5, -8, 20, 5453
COc1ccc(Nc2nnc(SC(C(=O)Nc3ccc(OC)c(Cl)c3)c3ccccc3)s2)cc1 (stereo not given)
    -8, -21, -5, 6, -25, -5.0, 2403
O=C(COC(=O)/C=C/c1cccc(Cl)c1)NC1CC1
    /, -21, 3, -3, 5, 6.1, 3897
CCOc1ccc(CCNC(=O)CSCc2ccc(C)cc2)cc1OCC
    -10, 6, 10, 8, 2, 1.7, 1976
CCOc1ccc(NC(=O)NCCN2CCN(c3cccc(C)c3C)CC2)cc1
    -4, -13, -3, 9, 1, 1.9, 3706
CCn1c(=O)cc(OCC(=O)NCC2CCCO2)c2ccccc21 (stereo not given)
    2, -9, 4, 6, 1, 3.0, 4236
Cc1ccc(C=NNC(=O)CNC(=O)c2ccc(C)c([N+](=O)[O-])c2)o1
    /, /, -4, -11, 2, 7.0, /
Cc1csc(C2=C(O)CN(c3ccc4c(c3)OCCOCCOCCOCCO4)C2=N)n1
    /, -8, 6, 10, 9, 5.8, 3982
CC(=O)c1cc2c(=O)c3cc(C)ccc3oc2nc1C
    -4, -50, 8, 4, -8, -12, 3129
O=C(N/N=C\c1ccc(OC(=O)c2ccco2)cc1)c1ccc(Cl)cc1
    -25, -38, /, /, /, /, 4244
COc1ccc(OC)c(S(N)(=O)=O)c1
    1, -18, 14, 2, -2, 6.3, 11252
COc1ccc(C(NC(=O)C(C)C)c2c(O)ccc3ccccc23)cc1 (stereo not given)
    3, -17, 3, 0, 10, 0.2, 2570
CCN(CC)S(=O)(=O)c1ccc(NC(=O)c2cnccn2)cc1
    1, -17, 2, -9, 2, 4.6, 3638
FC(F)(F)c1cnc(C(c2ccccn2)c2ncn[nH]2)c(Cl)c1 (stereo not given)
    3, -34, 0, -5, 1, 2.7, 4727
NC(=O)C1(NC(=O)C2CC3(CC(c4cccc(NC(=O)C5CCC(=O)N5)c4)=NO3)CN2C(=O)Cc2ccc(Cl)cc2)CC1 (stereo not given)
    /, /, 5, 9, -2, 3.8, /
COc1ccc(-c2ccc(NS(=O)(=O)c3cccc([N+](=O)[O-])c3)cc2)nn1
    -6, -11, 7, -10, -1, -1.1, 4423
COc1ccc(OC)c(C(=O)c2ccccc2)c1
    7, -10, 7, 3, 3, 5.0, 10806
Cc1c(NC(=O)CCSc2ccc(Cl)cc2)c(=O)n(-c2ccccc2)n1C
    3, -18, /, /, 8, 5.9, 2534
O=C(NN=Cc1ccc(Br)o1)c1cncc(Br)c1
    /, /, 0, 8, 2, 0.7, /
CCc1ccc(C(C)NC(=O)C2(C)CC2(Br)Br)cc1 (stereo not given)
    29, -12, /, /, 5, -0.5, 3937
CCSc1nc2ccccc2c(=O)n1C1CCOC(C)(C)C1 (stereo not given)
    -1, -28, 1, 9, -1, 1.5, 2680
Cc1ccc(NC(=O)CN2C(=O)NC3(CCCC3)C2=O)nc1
    -7, -14, 3, 8, 7, 0.5, 5397
CCOC(=O)c1c(C)nc2ccc(Cl)cc2c1-c1ccccc1
    5, -15, -3, -13, -7, -12, 2173
CCCc1nnc(NC(=O)CSc2nc3ccccc3[nH]2)s1
    -2, -4, -7, 2, 7, 4.6, 3627
COC(=O)c1ccc(C(=O)OC)c(NC(=O)CN(c2ccc3c(c2)OCO3)S(C)(=O)=O)c1
    -3, /, 4, 4, -5, 1.1, 10279
Cc1nc2cc(NC(=O)Nc3ccc(N4CCOCC4)cc3)ccc2n1C
    3, -26, 13, 2, 1, 3.5, 9130
Cc1cc(Br)ccc1NC(=O)CNC(=O)Cc1ccc(S(=O)(=O)N2CCOCC2)s1
    -10, -9, /, /, /, /, 6143
CCCC(=O)N1CCN(c2nc3ccccc3s2)CC1
    2, -69, 4, -7, 13, 6.4, 4387
CCOC(=O)C(Cc1ccccc1)NC(=O)CNC(C)=O (stereo not given)
    1, -9, 16, 1, -1, 3.7, 10199
COc1cccc(C(=O)N2N=C(c3ccccn3)CC2(O)C(F)(F)F)c1 (stereo not given)
    9, -30, -6, 9, -15, 17, 4109
CCOC(=O)c1cc(-c2ccccc2)nn1CC1CC(c2cccc([N+](=O)[O-])c2)=NO1 (stereo not given)
    -2, -8, 5, 4, 6, 9.4, 3249
CCN1C(=O)C2C(c3ccc(-c4cccc(Cl)c4)c(OC)c3)N3CCCC[C@@]3(C(=O)OC)C2C1=O (stereo not given in full)
    /, /, -7&4, 2&10, -2&-21, -2.0&13, /

# (cont.)
# The line under a structure holds: BJeLR viability, PrP 5UTR inh, Mtb hypoxia rep, Mtb hypoxia rep growth, ugtP null kill, RN4220 kill, Autofluor counter
COCCCNC(=O)Cn1nc(-c2cccc(OC)c2)ccc1=O
    5, 1, -9, -3, 8, 4.0, 3520
CCN(C(C)=O)c1nc(CSc2nnc(NC(C)C)s2)cs1
    5, 5, 8, 10, -2, 4.0, 19610*
Cc1occc1C(=O)N(C)CC1CCCN(CCc2ccccc2F)C1 (stereo not given)
    2, -4, -1, -2, 8, -1.5, 4670
CCCCC[C@@H]1C=C(C(=O)O)[C@H](c2cccc(C)c2)N1S(=O)(=O)c1ccc(C)cc1
    /, 3, -4, 4, 5, 20, 3494
CCOC(=O)COc1ccc(C(=O)CC)cc1OC
    -3, -20, 8, 8, 6, -1.9, 2152
Cc1ccc(Nc2nc(-c3ccccc3)c(CC(=O)O)s2)cc1
    0, -38, 13, 8, -4, -2.4, 4826
COc1cc(OC)cc(-c2cc(NC(C)=O)n[nH]2)c1
    3, -15, 7, 17, -1, -9.7, 4415
Cc1cccc(C=NNC(=O)C2CCCNC2=O)c1 (stereo not given)
    /, /, 7, 6, 4, 5.1, /
O=S1(=O)CCN(C(CO)c2ccccc2)CC1 (stereo not given)
    5, -36, 6, 3, 6, 0.9, 4484
COc1ccccc1OC(C)C(=O)Nc1ccc2c(c1)OCCO2 (stereo not given)
    2, -15, -1, -1, -1, 5.0, 6038
C=CCOC(=O)C1=C(C)N=C2SCCC(=O)N2C1c1cccs1 (stereo not given)
    -9, 1, /, /, -6, 4.7, 4478
S=C(NCCc1ccccc1)NC1CCCCCC1
    3, -109, /, /, 1, 0.1, 3562
O=C(CSc1ncn[nH]1)Nc1nc(-c2ccccc2)cs1
    -4, -17, /, /, /, /, 2863
Cc1ccc(S(=O)(=O)Nc2cccc(C(=O)NCC(c3ccco3)N(C)C)c2)cc1F (stereo not given)
    8, -10, 0, 4, 4, 1.7, 5803
Cc1sc2ccccc2[n+]1CC(=O)c1ccccc1
    -4, -27, 8, 12, 10, 5.9, 4287
Cc1cc(C)c(OCC(=O)N(Cc2cccs2)C2CCS(=O)(=O)C2)c(C)c1 (stereo not given)
    11, -12, 10, 0, -2, 0.1, 4720
Cc1nc(NC(=O)COC(=O)C(C)NC(=O)c2ccccc2)c(Cl)cc1Cl (stereo not given)
    /, -22, 7, 5, 5, 3.4, 3618
Cc1ccccc1C(=O)NCCOc1ccccc1Cl
    -4, -46, 0, -6, -2, 12, 4233
COc1ccccc1NC(=O)Cc1cccc2ccccc12
    13, 3, 9, 14, 2, 6.4, 3642
CCOc1ccc(-c2cc(C(=O)N/N=C/c3ccc(O)cc3)c3ccccc3n2)cc1
    39, 32, /, /, /, /, 5723
O=C(c1ccc(Br)o1)N1CCN=C1SCc1cccc(F)c1
    2, -51, /, /, 4, 2.8, 4972
Cc1cccc(N2CCN(C(=O)c3cc(S(=O)(=O)N4CCCC4)cn3C)CC2)c1C
    16, 2, 8, 8, -1, -7.3, 4547
O=C1CCc2cc(S(=O)(=O)N3CCN(Cc4ccc5c(c4)OCO5)CC3)ccc2N1
    5, /, 2, 0, 7, 0.5, 10909
O=C(c1ccco1)N(CCC(c1ccccc1)c1ccco1)Cc1ccccc1 (stereo not given)
    -3, -1, -11, -8, 63, 4.3, 2030
COc1ccc(CN2C[C@]3(CO)O[C@@H](CO)C[C@@H]3S2(=O)=O)cc1
    /, -8, -1, 3, 6, 0.8, 3641
CC(C)CCN1CCNC(=O)C1CC(=O)Nc1ccc(F)cc1 (stereo not given)
    1, -20, 20, 2, 18, 6.0, ?

# From PubChem BioAssay
